High-throughput results from PubChem BioAssay.
Calb FLC – affects C. albicans growth with fluconazole | C. albicans CaCi-2 (fluconazole-resistant clinical isolate) + fluconazole, Alamar Blue growth, 48 h | growth inhibition, % (test concentration not listed) | 300,000 tested, 0.57% active;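 active means most replicates above 75%; inconclusive means exactly half above 75%; inactive means most below 75%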;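 further: all wells also contain fluconazole at 8 µg/ml as a sub-toxic cotreatment; 0% = median of DMSO wells and 100% = median of geldanamycin control wells; wells of about 8 µL received 7.5 nL stock; the first replicate is given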
ALR H2O2 inh – inhibitors of human sulfhydryl oxidase ALR; purified ALR, DTT oxidation, H2O2 HRP-luminol luminescence; 290,000 tested, 3.8% active; inhibition, % (no concentration beside the values); P55789;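 active means mean and each replicate at 75% or more; inconclusive means only one of the two met; inactive means neither met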;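 further: stock transfer was 7.5 nL into about 7.5 µL; 0% = neutral wells and 100% = wells with inactivated enzyme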
Beta cell apopt – beta cell apoptosis inhibition; INS-1E cytokine-induced death, ATP luminescence, 48 h; percent of positive-control rescue, neutral wells zero; protection from apoptosis, % (no concentration beside the values); 300,000 tested, 0.8% active;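 active means all replicates at 75% or more, or half of them and the mean; inconclusive means half reach 75% but not the mean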;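 further: 0% = cytokine-treated negative control wells and 100% = positive control rescue; higher means more ATP so stronger rescue from cytokine killing; wells of about 40 µL received 100 nL stock; the first replicate is given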
LANA-H2B inh – blocks KSHV LANA binding to histone H2A/H2B | Q9QR71 | cell-free LANA-H2A/H2B peptide, fluorescence polarization | inhibition, % (concentration not given with the values) | 320,000 tested, 0.6% active | AID 2629; in the data active means inhibition mostly above about 10%, no sharp cut-off; inactive means mostly below about 6.7%;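 further: stock transfer was 7.5 nL into about 10 µL; 0% = median of vehicle wells and 100% = median of positive control wells; one replicate is shown; the record names a cut of 25% in any replicate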
Target sequence (Q9QR71 whole entry, looked up): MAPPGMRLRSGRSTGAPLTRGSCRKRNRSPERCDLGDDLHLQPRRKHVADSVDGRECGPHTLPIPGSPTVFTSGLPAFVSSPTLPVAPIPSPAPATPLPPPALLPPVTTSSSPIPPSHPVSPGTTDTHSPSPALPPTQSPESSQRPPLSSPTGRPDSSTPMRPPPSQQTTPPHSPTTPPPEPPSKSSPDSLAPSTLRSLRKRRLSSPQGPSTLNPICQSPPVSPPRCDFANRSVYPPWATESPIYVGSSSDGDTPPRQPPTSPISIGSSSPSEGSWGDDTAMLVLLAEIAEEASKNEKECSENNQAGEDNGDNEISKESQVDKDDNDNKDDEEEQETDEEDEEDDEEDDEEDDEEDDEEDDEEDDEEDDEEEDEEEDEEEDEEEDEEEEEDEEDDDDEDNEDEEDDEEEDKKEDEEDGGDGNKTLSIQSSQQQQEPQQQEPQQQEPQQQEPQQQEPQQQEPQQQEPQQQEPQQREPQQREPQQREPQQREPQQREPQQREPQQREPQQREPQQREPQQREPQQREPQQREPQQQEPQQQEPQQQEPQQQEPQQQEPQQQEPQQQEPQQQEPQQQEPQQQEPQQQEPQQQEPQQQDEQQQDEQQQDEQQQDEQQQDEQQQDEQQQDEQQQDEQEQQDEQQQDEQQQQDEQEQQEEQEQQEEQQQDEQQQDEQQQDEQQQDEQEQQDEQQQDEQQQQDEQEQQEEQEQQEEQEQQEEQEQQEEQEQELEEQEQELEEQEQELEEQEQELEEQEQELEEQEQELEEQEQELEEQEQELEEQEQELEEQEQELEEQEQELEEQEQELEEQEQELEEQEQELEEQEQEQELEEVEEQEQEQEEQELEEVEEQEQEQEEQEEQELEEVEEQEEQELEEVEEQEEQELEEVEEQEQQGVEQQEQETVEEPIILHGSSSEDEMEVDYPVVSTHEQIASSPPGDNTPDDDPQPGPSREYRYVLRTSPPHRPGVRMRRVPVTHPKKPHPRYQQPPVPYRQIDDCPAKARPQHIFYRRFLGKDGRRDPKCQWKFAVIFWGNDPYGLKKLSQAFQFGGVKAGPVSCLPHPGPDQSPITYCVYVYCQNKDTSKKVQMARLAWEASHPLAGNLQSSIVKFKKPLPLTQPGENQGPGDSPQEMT
T cruzi repl – blocks replication of Trypanosoma cruzi; T. cruzi beta-gal in NIH3T3, luminescence, 90 h; inhibition, % (no concentration beside the values); 300,000 tested, 1.4% active; AID 1885;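 active means mean inhibition across valid replicates above about 55%, limit read from the data; inconclusive means mean below that limit but half or more replicates reach it; inactive means mean below it, under half of replicates reach it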;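 further: signal also drops with host cell toxicity which is not excluded here; 0% = plate median of DMSO wells and 100% = zero luminescence signal; higher percent means less beta-gal luminescence so fewer parasites; stock transfer was 50 nL into about 50 µL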
Beta2AR agonist – human beta-2 adrenergic receptor agonism by FAP; 340,000 tested, 0.43% active; response, % (no concentration beside the values); AID 504454; P07550; Am2.2-beta2AR cells, FAP receptor internalization, flow cytometry; reference of the scale not given here;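 active means response above a set limit, near 3 SD of response in nonfluorescent compounds, cut at about 42% in these data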;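 further: stock transfer was 100 nL into about 11 µL; a reference agonist was the positive control; negative values mostly stem from fluorescent compounds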
rRNA inh HTS – inhibits bacterial ribosomal RNA function over humanized ribosomes | E. coli WT GFP vs humanized-ribosome RFP mutants, fluorescence, 24 h; stronger effect = lower value; DMSO median 0, no signal -100 | AID 720706 | GFP signal change (wild-type ribosome), % (no concentration beside the values) | 350,000 tested, 1.6% active;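 active means significant combined selectivity score with lowered wild-type GFP, culture density cut under 30%, mutant RFP and density less affected; inactive means any of these conditions unmet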; further: one replicate is shown; some compounds called inactive have numbers as strong as hits
A1 inh – inhibitors of the anti-apoptotic protein A1, read as caspase activation. 330,000 tested, 0.066% active. caspase activation, % (no concentration beside the values). MEF A1-2A-BIM cells, Caspase-Glo 3/7 luminescence, 3 h; percent of clofoctol response, vehicle zero. AID 2462;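 active means over half of replicate activation scores above 10%, or exactly half above 10 with the replicate mean above 10; inconclusive means replicate mean below 10 yet half the replicates above 10; inactive means over half of replicates below 10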;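 further: wells of about 30 µL received 50 nL stock; many hits fall short of the cut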
rRNA inh HTS OD600 – second read-out of rRNA inh HTS, no call of its own (marks repeat the call); OD600 change, %; measured here: OD600 growth;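 optical density of the mix in the first replicate; 0 = DMSO median and -100 = no signal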
rRNA inh HTS RFP – recorded beside rRNA inh HTS, whose call it bears; RFP signal change, %; measured here: RFP humanized mutant strains;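 first replicate; 0 = DMSO median and -100 = no signal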
* = called active by the depositor; ? = inconclusive; . = no result given. Some of the compounds tested. The share of hits here may be higher or lower than overall.

The opening four compounds (preview)
SMILES	Calb FLC	ALR H2O2 inh	Beta cell apopt	LANA-H2B inh	T cruzi repl	Beta2AR agonist	rRNA inh HTS	rRNA inh HTS OD600	rRNA inh HTS RFP	A1 inh
CCCn1c(NC(=O)C2COc3ccccc3O2)nc2ccccc21 (stereo unspecified)	4	-1	14	3.6	52	-8	.	.	.	1.0
O=C(CSc1nc2scc(-c3ccco3)c2c(=O)n1-c1ccccc1)NCC1CCCO1 (stereo unspecified)	25	96*	-6	0.9	2	4	.	.	.	-0.4
CC1(C)Cc2c(C#N)c(SCCC#N)nc(N3CCOCC3)c2CS1	2	-20	.	-0.3	14	-1	.	.	.	-0.1
Cn1c(CNC(=O)CNS(=O)(=O)c2ccc(Cl)cc2)cc(=O)n(C)c1=O	.	0	-1	-1.6	1	0	9	16	3.5	0.0

The whole of this part, previewed entries included:
SMILES	Calb FLC	ALR H2O2 inh	Beta cell apopt	LANA-H2B inh	T cruzi repl	Beta2AR agonist	rRNA inh HTS	rRNA inh HTS OD600	rRNA inh HTS RFP	A1 inh
CCCn1c(NC(=O)C2COc3ccccc3O2)nc2ccccc21 (stereo unspecified)	4	-1	14	3.6	52	-8	.	.	.	1.0
O=C(CSc1nc2scc(-c3ccco3)c2c(=O)n1-c1ccccc1)NCC1CCCO1 (stereo unspecified)	25	96*	-6	0.9	2	4	.	.	.	-0.4
CC1(C)Cc2c(C#N)c(SCCC#N)nc(N3CCOCC3)c2CS1	2	-20	.	-0.3	14	-1	.	.	.	-0.1
Cn1c(CNC(=O)CNS(=O)(=O)c2ccc(Cl)cc2)cc(=O)n(C)c1=O	.	0	-1	-1.6	1	0	9	16	3.5	0.0
CC(C)Cc1oc(C(=O)O)cc1CN1CCOCC1	1	-3	-5	1.0	-4	-4	10	20	-0.1	0.5
O=C(NCc1cccc(C(F)(F)F)c1)c1cccc2c1C(=O)c1ccc(N3CCC(Cc4ccccc4)CC3)cc1S2(=O)=O	.	4	-1	-1.8	.	-42	.	.	.	0.7
Cc1cc(C(=O)NNC(=O)c2ccc(Cl)cc2)c2ccccc2n1	.	.	1	-1.6	.	-2	0	-1	-1.8	0.2
Cc1cccc(N2C(=O)c3ccccc3C2=O)n1	2	-9	-8	0.3	-6	2	0	1	-4.5	-0.4
COc1cc(C(=O)NCCOc2cccc3cccnc23)cc(OC)c1OC	-1	-14	-1	-2.7	9	1	-11	-14	9.5	-0.1
O=C1/C(=C\c2ccc3c(c2)OCO3)CCC/C1=C/c1ccc2c(c1)OCO2	1	-4	13	0.8	0	-7	.	.	.	-0.3
O=C(N/C(=C\c1ccccc1Cl)C(=O)N1CCOCC1)c1ccc([N+](=O)[O-])cc1	7	-30	2	0.9	7	1	7	3	0.3	-0.3
Cn1cc(C(C[N+](=O)[O-])c2ccccc2)c2ccccc21 (stereo unspecified)	7	1	-5	-0.6	20	4	-4	-48	-6.3	0.8
CCN(CC)S(=O)(=O)c1ccc(N2CC(C(=O)N3CCOCC3)CC2=O)cc1 (stereo unspecified)	.	0	-3	3.9	.	-1	.	.	.	0.7
COc1ccc(NC(=O)C2CC(c3ccc(Cl)cc3)=NO2)cc1OC (stereo unspecified)	15	2	0	0.0	7	-2	13	10	4.4	0.6
CCC(O)(CC)C(=O)NN(C(=O)CCl)c1ccccc1	6	1	23	6.3	-7	0	13	-5	-4.0	0.9
Cc1cc(Nc2ccc(F)cc2F)n2ncnc2n1	7	-6	4	0.5	-11	1	11	4	-1.4	1.2
CC(=O)Nc1cccc(C(=O)Nc2ccccc2N2CCOCC2)c1	-1	-5	0	-0.7	-14	0	3	-3	-2.0	-0.2
COC(=O)c1cccc(CSc2nc(-c3ccccc3)c(C#N)c(=O)[nH]2)c1	14	.	3	5.1	-17	11	-54	-76	-29	0.6
Cc1oc(-c2ccccc2Cl)nc1CSCC(=O)NC1CC1	0	98*	-9	-3.1	5	-6	.	.	.	0.3
COc1ccc(CCN2CC(C(=O)NCCc3cn[nH]c3)CCC2=O)cc1 (stereo unspecified)	-9	-5	-2	-0.1	-11	2	7	8	0.7	-0.4
CCN(C(=O)COC(=O)c1[nH]c(=O)[nH]c(=O)c1N)c1ccccc1	-8	.	8	.	-8	2	14	5	-2.0	0.9
S=C(NCCCCNC(=S)NCc1ccccc1)NCc1ccccc1	-7	-9	-1	-1.6	1	-9	0	-10	0.9	0.4
FC(F)(F)c1ccccc1/C=N/Nc1ccccn1	15	4	0	1.5	23	5	7	1	-2.2	-1.5
C=CCNS(=O)(=O)c1cccc2cc(C(=O)O)c(O)cc12	2	-59	-3	0.9	-5	8	.	.	.	0.6
CCN(C(=O)CSc1cc(C)c2ccc(OC)cc2n1)C1CCS(=O)(=O)C1 (stereo unspecified)	-1	-4	-17	0.2	-3	2	-23*	-12*	0.9*	-0.4
CC(C)=CCSc1nnc([C@@H](NC(=O)OC(C)(C)C)C(C)C)o1	-29	0	0	1.5	-10	1	.	.	.	0.0
NNC(=O)c1ccc(Cn2cc(Br)cn2)cc1	6	-2	.	0.0	-8	12	.	.	.	0.0
O=S(=O)(c1ccc2c(c1)OCO2)N1CCN(c2nnnn2-c2ccccc2)CC1	-1	-8	-3	2.9	3	-3	.	.	.	-0.3
O=c1nc2ccccc2c2n1CC(CN1CCN(C(c3ccccc3)c3ccccc3)CC1)N2 (stereo unspecified)	11	-8	-5	0.5	16	1	-56	-78	-27	0.9
Cc1ccc(C(=O)NCC2CCCN2S(=O)(=O)c2ccc(C)cc2)cc1 (stereo unspecified)	-2	-2	1	-0.3	5	-13	-10	-16	3.3	1.0

Some of the entries above in another layout.
Molecule,Calb FLC,ALR H2O2 inh,Beta cell apopt,LANA-H2B inh,T cruzi repl,Beta2AR agonist,rRNA inh HTS,rRNA inh HTS OD600,rRNA inh HTS RFP,A1 inh
S=C(NCCCCNC(=S)NCc1ccccc1)NCc1ccccc1,-7,-9,-1,-1.6,1,-9,0,-10,0.9,0.4
O=c1nc2ccccc2c2n1CC(CN1CCN(C(c3ccccc3)c3ccccc3)CC1)N2 (stereo unspecified),11,-8,-5,0.5,16,1,-56,-78,-27,0.9
CCN(C(=O)CSc1cc(C)c2ccc(OC)cc2n1)C1CCS(=O)(=O)C1 (stereo unspecified),-1,-4,-17,0.2,-3,2,-23*,-12*,0.9*,-0.4
Cc1ccc(C(=O)NCC2CCCN2S(=O)(=O)c2ccc(C)cc2)cc1 (stereo unspecified),-2,-2,1,-0.3,5,-13,-10,-16,3.3,1.0
O=S(=O)(c1ccc2c(c1)OCO2)N1CCN(c2nnnn2-c2ccccc2)CC1,-1,-8,-3,2.9,3,-3,.,.,.,-0.3

(cont.)
SMILES	Calb FLC	ALR H2O2 inh	Beta cell apopt	LANA-H2B inh	T cruzi repl	Beta2AR agonist	rRNA inh HTS	rRNA inh HTS OD600	rRNA inh HTS RFP	A1 inh
O=C(c1ccco1)c1n[nH]nc1-c1ccccc1	-2	-9	2	-3.4	-19	4	-1	-6	3.2	-0.1
Cc1cc2nn(-c3ccc(Cl)cc3)nc2cc1N	-11	-1	4	-1.7	-11	12	1	12	-1.8	-2.5
CC(=O)Nc1ccc(C(=O)N(C)C(C(=O)Nc2ccccc2)c2ccccn2)cc1 (stereo unspecified)	8	.	1	-0.6	-10	-3	.	.	.	0.9
O=C(COc1ccc(Cl)cc1Cl)c1ccc[nH]1	-10	.	-7	-1.1	-2	-1	-31*	-20*	3.0*	-3.0
O=C(Nc1ccccn1)c1cc2ccccc2cc1O	2	-1	6	-0.6	10	1	.	.	.	-4.1
CCOC(=O)N1CCC(N2C(=O)c3ccccc3C2Nc2cc(C(=O)OC)cc(C(=O)OC)c2)CC1 (stereo unspecified)	-6	-4	2	1.0	-3	2	4	-1	10	0.2
COC(=O)Cc1cc(=O)n2[nH]c(C)cc2n1	0	-5	-2	-0.5	-7	9	.	.	.	0.2
CC(C)NC(=O)CCCc1c[nH]c2ccccc12	-15	18	-5	-5.9	-12	-1	0	5	-4.1	0.3
CCOC(=O)c1nnn(-c2nc(OC)nc(N3CCCC3)n2)c1-c1ccccc1	22	-6	2	-3.2	13	-1	.	.	.	-0.8
Cc1occc1C(=O)N1CCN(Cc2ccccc2)CC1	-4	-8	-2	-5.2	-13	3	21	17	0.6	-0.3
Cc1c(Cl)cccc1NC(=O)Nc1c(C)n(C)n(-c2ccccc2)c1=O	-6	-4	-4	1.9	-4	-2	0	10	1.0	1.1
CC(C1CCN(Cc2cn(C)nc2-c2cccc(Cl)c2)CC1)N1CCOCC1 (stereo unspecified)	-7	0	0	2.3	-4	-9	11	-1	-6.6	0.3
COC(=O)c1ccc(NC(=O)Cn2c(-c3nonc3N)nc3ccccc32)cc1	-7	-5	3	3.0	-8	7	18	20	5.6	1.0
Cc1ccc(N2C(=O)C(CN3CCCC3)C2c2ccccc2)cc1 (stereo unspecified)	-20	-8	3	2.0	22	7	1	-9	0.5	0.7
O=C(COc1ccc(Cl)cc1Br)N1CCN(c2ccccc2)CC1	3	-7	-2	-5.3	7	-3	.	.	.	0.9
O=C(/C=C/c1cccc([N+](=O)[O-])c1)N1CCN(Cc2ccc3c(c2)OCO3)CC1	5	-15	2	2.5	-12	-6	4	8	-2.4	0.0
Cc1cccc(N(C)c2cc(C)nc3ncnn23)c1	9	-11	-13	-3.5	4	9	6	8	-2.6	-0.6
CC(=O)Oc1ccc2c(c1)OC(c1ccccc1)CC21CC(C)(C)NC(=O)N1 (stereo unspecified)	-9	0	0	-1.0	-18	-2	.	.	.	-0.4
O=C(c1ccc(Cl)cc1)c1oc2ccccc2c1CS(=O)c1ccc(Cl)cc1 (stereo unspecified)	?	?	-7	-1.8	18	-12	.	.	.	1.5
O=c1onc(-c2ccc(Cl)cc2)n1Cc1ccc(F)cc1	-1	21	1	-0.6	-4	-10	5	-4	2.4	0.4
CCn1cc(C(=O)N2CCCC(N3CCN(c4ccccc4C)CC3)C2)cn1 (stereo unspecified)	1	5	-2	0.9	15	-1	1	2	0.8	-0.2
O=C(c1ccccc1-c1nc(-c2ccccc2)no1)N1CCCC1	-11	6	5	5.1	-4	3	.	.	.	0.4
